Compound activity (PubChem BioAssay)
CtBP-E1A inh – CtBP/E1A binding inhibition; AID 651724; AlphaScreen GST-E1A/His-CtBP binding, 1536-well; active compounds read low; control for the full effect not named in the record; actives 0.49% (n = 340,000); activity change, % (concentration not given with the values); in the data active means activity change below about -65%; inconclusive means about -30% to -65%; inactive means above about -30%; note: % is set by controls: 0 for no effect and ±100 for the full control effect
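In 5 uL wells, 23 nL compound meets equimolar GST-E1A and His-CtBP (5X stock 125 nM each) for 2 h, 37 °C. Beads (5X, 50 ug/mL) then 1 h, 37 °C, dark.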
Six1-Eya2 blk – inhibitors of human Six1/Eya2 interaction; AlphaScreen GST-Six1/His-Eya2 binding, biochemical; active compounds read low; control for the full effect not named in the record; activity change, % (test concentration not listed); Q15475+O00167; actives 0.56% (n = 360,000); in the data active = activity change below about -65%; inconclusive = about -30% to -65%; inactive = above about -30%; note: % is set by controls: 0 for no effect and ±100 for the full control effect
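AlphaScreen luminescence read after one hour at 37 °C in darkness. Pin-transferred compounds met GST-Six1 and His-Eya2 protein (5X stock 250 nM/500 nM) plus glutathione donor and Ni-chelate acceptor beads (5X, 50 ug/mL).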
TRPML1 agonist – activates the human TRPML1 channel | activation, % (concentration not given with the values) | AID 624414 | TRPML1-expressing cells, Ca2+ dye fluorescence, FDSS; host cell line not named in the record; reference of the full effect not given here | actives 0.12% (n = 410,000) | Q9GZU1; in the data active = activation above about 50%; inconclusive = about 30% to 50%; inactive = below about 30%; note: 0% is about no effect; the text of the record puts the active cut at 80%
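Calcium fluorescence on an FDSS kinetic reader gave the read-out. Tet-induced TRPML1-DL cells were plated overnight, dye-loaded (Ca8 with quencher, 45-90 min, room temperature, dark), then read 110 s after compound addition, and again 110 s after 4uM final 54-4 (EC80).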
TRPML1 inh – human mucolipin-1 channel inhibition; activity change, negative = inhibition, % (no concentration beside the values); TRPML1-inducible cells, Ca2+ dye fluorescence, FDSS; active compounds read low; inhibition of EC80 agonist-evoked calcium signal; Q9GZU1; actives 0.02% (n = 390,000); in the data active means activity change below about -50%; inconclusive means about -30% to -50%; inactive means above about -30%;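 note: stimulus is agonist 54-4 at its EC80 concentration; % is set by controls: 0 for no effect and ±100 for the full control effect; compound concentration not given in the record; the text of the record puts the active cut at -80%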
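Calcium fluorescence in TRPML1-DL cells induced overnight with Tet: a 110 s read after compound pin addition, then a 110 s antagonist read after challenge with 54-4 at 4 uM final (EC80).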
TRPV1 potentiator – enhances activation of the human vanilloid receptor TRPV1; Q8NER1; AID 540277; potentiation, % at 8.33 µM; TRPV1-expressing cells, Fluo-8 calcium influx, capsaicin EC20 potentiation; host cell line not named in the record; control for the full effect not named in the record; actives 0.02% (n = 320,000); active means potentiation above 80%; inconclusive means 30% to 80%; inactive means below 30%; note: 0% is about no effect
Target sequence (Q8NER1 whole entry, looked up): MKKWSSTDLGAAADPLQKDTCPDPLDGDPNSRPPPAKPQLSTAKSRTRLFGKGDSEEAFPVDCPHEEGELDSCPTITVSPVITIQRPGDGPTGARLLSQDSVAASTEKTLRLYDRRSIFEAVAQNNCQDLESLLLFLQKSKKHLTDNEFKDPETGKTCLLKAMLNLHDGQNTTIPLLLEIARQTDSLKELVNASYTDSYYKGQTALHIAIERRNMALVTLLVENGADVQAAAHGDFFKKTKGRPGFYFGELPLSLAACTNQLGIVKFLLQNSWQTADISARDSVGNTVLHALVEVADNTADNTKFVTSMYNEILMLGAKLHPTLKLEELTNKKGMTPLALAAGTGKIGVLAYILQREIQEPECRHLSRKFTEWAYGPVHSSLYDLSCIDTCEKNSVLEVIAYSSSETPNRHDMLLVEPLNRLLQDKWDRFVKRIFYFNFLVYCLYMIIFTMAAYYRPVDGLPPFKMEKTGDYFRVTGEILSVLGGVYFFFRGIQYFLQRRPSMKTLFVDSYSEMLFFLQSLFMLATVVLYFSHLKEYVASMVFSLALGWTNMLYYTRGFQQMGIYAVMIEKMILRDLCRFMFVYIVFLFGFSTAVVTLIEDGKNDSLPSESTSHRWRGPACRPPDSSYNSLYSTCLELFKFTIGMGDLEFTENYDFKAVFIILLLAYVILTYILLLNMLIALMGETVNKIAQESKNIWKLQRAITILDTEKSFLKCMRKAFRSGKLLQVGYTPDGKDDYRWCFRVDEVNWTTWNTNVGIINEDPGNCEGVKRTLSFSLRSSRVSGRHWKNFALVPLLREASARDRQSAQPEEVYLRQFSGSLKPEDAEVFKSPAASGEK
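Fluo-8 calcium influx in TRPV1-expressing cells, kinetic read (ex 480/em 520 nm). Compound added and read 3 min for agonist activity, followed by capsaicin at EC20 final and 2 min further read for enhancement.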
D2 PAM – potentiates the human D2 dopamine receptor allosterically; actives 0.23% (n = 360,000); P14416; potentiation, % (no concentration beside the values); DiscoveRx D2 beta-arrestin cells, luminescence, 90 min; 100% = 57 uM dopamine signal; active = potentiation of 50% or more; inconclusive = 30% to 50%; inactive = 30% or less;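 note: compound concentration not given in the record; tested on top of an EC20 dose of dopamine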
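PathHunter beta-arrestin assay in DiscoveRx D2 cells. Compounds were added with an EC20 of dopamine (50 nM final) for 90 min at 37 deg C. Luminescence was read 1 h after detection reagent, with 57 uM dopamine as the EC100 control.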
* hit, by the source's call; ? = inconclusive; · = no result given.

SMILES	CtBP-E1A inh	Six1-Eya2 blk	TRPML1 agonist	TRPML1 inh	TRPV1 potentiator	D2 PAM
Cc1ccc(S(=O)(=O)Cc2nc3ccccc3c(=O)[nH]2)cc1	10	3	-0.6	14	1	-4
CC1(C)NC(=O)N(CC(=O)NNC(=O)c2ccccc2F)C1=O	1	3	1.8	25	8	-16
COc1cc(OC)cc(C(=O)Nc2ccc3nc4n(c(=O)c3c2)CCCC4)c1	·	-24	2.1	8	15	0
O=C(/C=C/c1cccc(Cl)c1)c1ccc([N+](=O)[O-])o1	5	2	0.7	27	-19	3
CCCCCCCC(=O)Nc1cc(C(=O)NCCC)ccc1N1CCC2(CC1)CC(c1cccc(Br)c1)=NO2	4	4	-1.0	25	-15	-11
COCCNc1nc(NCc2cccc(OC)c2OC)c2sccc2n1	3	0	-0.9	·	·	-12
CC(=O)c1cccc(NC(=O)N2CCc3ccccc3C2)c1	8	5	0.1	-12	-16	-20
COc1ccc(OC)c(NC(=O)c2cc3c(Cl)nc4ccccc4c3s2)c1	-1	1	0.3	-10	-10	-16
O=C(Cc1ccc(F)cc1)Nc1cccc(S(=O)(=O)N2CCCC2)c1	-1	6	0.9	9	?	-16
CCOC(=O)C1(C)CCN1C(=O)c1cccc(Cl)c1 (stereo not given)	5	3	-0.4	·	·	4
COc1ccc(C(=O)NNC(=S)NC(=O)c2ccc(OC)cc2)cc1	-7	-9	5.4	-16	6	-10
CC(=O)c1ccc(NC(=O)C2CC2c2ccccc2)cc1 (stereo not given)	0	0	-0.7	33	·	-2
O=C(CCc1nnc(C2CCCCC2)o1)NCc1cccc(-n2cccn2)c1	4	1	-0.2	1	-1	4
COc1ccc(C(=O)NC(=O)NC2(C(Cl)(Cl)Cl)OCCO2)cc1	-2	-3	1.0	8	-19	-3
O=C(NCC1CCCCC1)c1ccc(F)cc1Cl	7	0	-0.1	-14	-27	-8
CN(NS(=O)(=O)c1ccccc1)C(=O)c1ccccc1	4	10	-0.8	1	·	-2
CN(C)CCN1C(=O)c2oc3ccc(Cl)cc3c(=O)c2C1c1cccc(Br)c1 (stereo not given)	2	0	0.2	7	-8	-15
CCOC(=O)C1=C(C)NC(C)=C(C(=O)OCCNC(=O)c2cccnc2)C1c1cccc([N+](=O)[O-])c1 (stereo not given)	-14	-14	0.6	-1	-9	-30
O=C(O)CCc1nnc(SCC(=O)Nc2cccc(C(F)(F)F)c2)[nH]c1=O	6	1	1.7	-10	19	-7
CC(=O)c1cn(-c2ccc(Cl)cc2)c(=O)n(Cc2ccc(Br)cc2)c1=O	-4	-18	0.9	42	-2	-5
CCNc1nc(NCC)n2c(SCC(=O)Nc3c(C)cccc3C)nnc2n1	11	-14	0.3	1	0	1
CCOC(=O)c1ccc(N2Cc3ccccc3C2=N)cc1	-3	-2	-0.9	-1	-9	-13
Nc1c(-c2ccccc2)cnn1-c1ccccc1	7	4	0.7	28	-1	-9
CCN(CC)CCn1cnc2c1c(=O)n(CCOC(=O)c1cc(OC)c(OC)c(OC)c1)c(=O)n2C	6	13	0.8	9	-5	-5
Cc1nnc(SCc2nc3sc(C(=O)O)c(C)c3c(=O)[nH]2)s1	-6	4	0.7	0	-12	0
c1ccc(CN2CCOCCOCCOCCOCCOCCOCC2)cc1	14	-1	5.1	3	?	-2
COC(=O)C1(C)NC(c2ccc(O)cc2)C2C(=O)N(c3ccc(F)cc3)C(=O)C21 (stereo not given)	·	3	-0.7	0	-5	-6
O=[N+]([O-])c1ccccc1CN1CCN(S(=O)(=O)Cc2ccccc2)CC1	-8	13	-0.4	-12	6	-3
CN(CC(=O)Nc1ccc(N2CCOCC2)cc1)C(=O)CSc1ccccc1F	·	15	-1.4	16	26	-3
COc1ccccc1N1CCN(C(=O)c2cc(-c3ccc4c(c3)OCO4)on2)CC1	6	5	-0.1	6	-1	-3
CCOC(=O)C1CCCN(c2nc3ccccc3nc2C(C#N)C(=O)OC(C)C)C1 (stereo not given)	12	13	1.6	-23	-41	-13
CC(C)(C)[C@@H]1COC(=O)[C@@H](Cc2ccc(F)cc2)C/C=C\C[C@H](CC(=O)N(CCO)Cc2ccccc2)C(=O)N1	-3	-3	-0.1	-13	·	-23
COc1ccc(-c2nnc3c4ccccc4c(C)nn23)cc1S(=O)(=O)N1CCN(CCO)CC1	-82*	-71*	0.2	-8	24	-10
CCn1cc(S(=O)(=O)Nc2ccc3c(c2)OCCO3)cn1	0	3	0.7	10	4	-6
Oc1ccc(Nc2ncnc3ccccc23)cc1	·	18	0.8	0	2	-26
Cc1ccc(C)c(NC(=O)Cn2nc(C)c3ccccc3c2=O)c1	2	5	0.7	6	?	-5

Some of the entries so far, bar-delimited.
SMILES | CtBP-E1A inh | Six1-Eya2 blk | TRPML1 agonist | TRPML1 inh | TRPV1 potentiator | D2 PAM
CN(CC(=O)Nc1ccc(N2CCOCC2)cc1)C(=O)CSc1ccccc1F | · | 15 | -1.4 | 16 | 26 | -3
COc1ccccc1N1CCN(C(=O)c2cc(-c3ccc4c(c3)OCO4)on2)CC1 | 6 | 5 | -0.1 | 6 | -1 | -3
CCOC(=O)C1CCCN(c2nc3ccccc3nc2C(C#N)C(=O)OC(C)C)C1 (stereo not given) | 12 | 13 | 1.6 | -23 | -41 | -13
CC(C)(C)[C@@H]1COC(=O)[C@@H](Cc2ccc(F)cc2)C/C=C\C[C@H](CC(=O)N(CCO)Cc2ccccc2)C(=O)N1 | -3 | -3 | -0.1 | -13 | · | -23
COc1ccc(-c2nnc3c4ccccc4c(C)nn23)cc1S(=O)(=O)N1CCN(CCO)CC1 | -82* | -71* | 0.2 | -8 | 24 | -10
CCn1cc(S(=O)(=O)Nc2ccc3c(c2)OCCO3)cn1 | 0 | 3 | 0.7 | 10 | 4 | -6
Oc1ccc(Nc2ncnc3ccccc23)cc1 | · | 18 | 0.8 | 0 | 2 | -26

Next section:
SMILES	CtBP-E1A inh	Six1-Eya2 blk	TRPML1 agonist	TRPML1 inh	TRPV1 potentiator	D2 PAM
COC(=O)COc1ccc(S(=O)(=O)NCc2ccccn2)cc1	6	0	0.6	0	-5	-4
O=C(NCc1ccccc1Cl)C1CCCO1 (stereo not given)	·	6	0.9	0	4	1
CC(C)NC(=O)c1cc2cc(Br)ccc2oc1=O	2	1	-0.9	-4	2	-8
COCCn1c(-c2cccs2)nc2nc3ccccc3nc21	·	5	0.1	9	17	-3
CC(C)CC(NC(=O)C1CCC(C)CC1)C(=O)Nc1cccnc1 (stereo not given)	3	4	-1.0	7	5	-11
CCCCn1c(=O)c(C(=O)OCC)c(O)c2ccccc21	-2	1	3.9	-11	0	12
CC(=O)C1C(c2cn(-c3ccccc3)nc2-c2cccs2)NC(=O)NC1(O)C(F)(F)F (stereo not given)	2	16	0.5	-8	1	6
Cn1cnc2c(cnn2C)c1=O	-3	6	0.5	-11	·	1
O=C(Cc1ccc(F)cc1)OCn1nnc2ccccc2c1=O	10	18	-0.4	-15	-12	3
Cc1cc(C)cc(C(=O)NCC(=O)OCC(=O)Nc2ccc(C)cc2Br)c1	15	-1	2.4	-5	14	7
O=C(Oc1cccc(F)c1)c1ccc2c(=O)n3c(nc2c1)CCC3	3	1	-0.9	-1	2	6
Cc1ccccc1-c1ncc(CN2CCC(CO)(CCCc3ccccc3)CC2)cn1	-14	2	0.5	-2	12	-24

Part of the list above with just TRPML1 agonist.
compound	TRPML1 agonist
CCCCn1c(=O)c(C(=O)OCC)c(O)c2ccccc21	3.9
CC(=O)C1C(c2cn(-c3ccccc3)nc2-c2cccs2)NC(=O)NC1(O)C(F)(F)F (stereo not given)	0.5
Cn1cnc2c(cnn2C)c1=O	0.5
O=C(Cc1ccc(F)cc1)OCn1nnc2ccccc2c1=O	-0.4
Cc1cc(C)cc(C(=O)NCC(=O)OCC(=O)Nc2ccc(C)cc2Br)c1	2.4
O=C(Oc1cccc(F)c1)c1ccc2c(=O)n3c(nc2c1)CCC3	-0.9

3 structures out of the list, sorted by number of heavy atoms, low to high.
SMILES	CtBP-E1A inh	Six1-Eya2 blk	TRPML1 agonist	TRPML1 inh	TRPV1 potentiator	D2 PAM
O=C(Cc1ccc(F)cc1)OCn1nnc2ccccc2c1=O	10	18	-0.4	-15	-12	3
CC(C)CC(NC(=O)C1CCC(C)CC1)C(=O)Nc1cccnc1 (stereo not given)	3	4	-1.0	7	5	-11
CC(=O)C1C(c2cn(-c3ccccc3)nc2-c2cccs2)NC(=O)NC1(O)C(F)(F)F (stereo not given)	2	16	0.5	-8	1	6

The listing continues:
SMILES	CtBP-E1A inh	Six1-Eya2 blk	TRPML1 agonist	TRPML1 inh	TRPV1 potentiator	D2 PAM
CCN1CCN(C(=O)CCc2nnc3ccc(N4CCN(c5cccc(OC)c5)CC4)nn23)CC1	·	-10	-1.2	-14	-2	-10
COc1ccc(C(=O)CSc2nc(C)cc(=O)[nH]2)cc1	5	4	0.9	6	0	0
CC(=O)OC(C)=O	-1	1	-0.3	1	2	-13
CCC(Sc1nnnn1-c1ccccc1)C(=O)Nc1nc2ccccc2s1 (stereo not given)	-8	-14	1.1	-10	17	-19
CC(=O)CC(c1ccccc1)S(=O)(=O)c1ccc(C)cc1 (stereo not given)	2	5	0.5	10	·	-2
CCCCCc1c(-c2ccc(Cl)cc2)ncn1CCc1ccccc1OC	-2	-15	0.8	·	·	·
C/C=C/c1cnc2c(c1)C(=O)N([C@H](C)CO)C[C@H](C)[C@@H](CN(C)C(=O)CN1CCOCC1)O2	5	2	0.6	-6	·	8
COc1ccc(NC(=O)CN2C(=O)c3ccccc3S2(=O)=O)cc1S(=O)(=O)N1CCOCC1	-1	5	-0.2	-1	-5	2
O=C(Cc1nc2ccccc2[nH]1)N/N=C/c1ccccc1	-7	-1	5.6	-1	11	-8
COc1nc(N(C)S(=O)(=O)c2ccc(C)cc2)nc(C)c1Cl	3	6	2.5	3	-14	-12
O=C1C2CC=CCC2C(=O)N1c1n[nH]c(Cc2ccccc2)n1 (stereo not given)	15	2	-0.2	-18	2	2
COc1ccc(OC)c(S(=O)(=O)NCc2ccc(N3CCN(C)CC3)cc2)c1	1	1	0.0	-9	1	-10
